# Methyltransferases: Primary Screen for Target Class Profiling of Small Molecule Inhibitors of Methyltransferases; purified enzyme, MTase-Glo SAH luminescence; active compounds read low; calls only at 40 µM; 3.9% of 25,000 active; active = -50% or lower on at least one of six enzymes; inconclusive = the cases between; inactive = as a rule above -30% on all six;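 further: enzymes were COMT GAMT GNMT HNMT NNMT and PNMT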
#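 Each enzyme was assayed with SAM and its substrate. SAH formation detected by MTase-Glo luminescence; single-point 40 uM screen[…].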
# Calls only; i = inactive; ? = inconclusive; + = active, no number. On the % scale 0 is the no-effect control and ±100 the full control effect.
no.	Structure	Methyltransferases
1	CC(C)Oc1ccc(CNC(=O)c2cc3n(n2)CC(C)(C(=O)NC2CCCCC2)N(C)C3=O)cc1 (stereo not given)	i
2	O=C(c1n[nH]c2ccccc12)N1CCC(N2C(=O)C(OCC3CC3)C23CCCCC3)CC1 (stereo not given)	i
3	CCCC1c2cccn2CCN1C(=O)Nc1ccccc1OC (stereo not given)	i
4	COC(=O)N1CCC2(CC1)C(=O)NN=C2c1ccncc1	i
5	CCC(C)NC(=O)c1ccc2c(=O)n(C)c3nnc(SCc4ccc(C)cc4)n3c2c1 (stereo not given)	i
6	CC(C)(C)c1ccc(C(=O)CCCN2CCC(OC(c3ccccc3)c3ccccc3)CC2)cc1	i
7	Cc1ccccc1N1C(=O)c2cc3sccc3n2CC1(C)C(=O)NC1CCCCCC1 (stereo not given)	i
8	COc1ccc2cc3n(c2c1)CC(C)(C(=O)NC1CCCC1)N(c1cc(C)cc(C)c1)C3=O (stereo not given)	i
9	COC(=O)c1ccc2nc(CO[C@H]3CN(Cc4cccc(C#N)c4)C[C@H]3F)[nH]c2c1	i
10	O=C1CCN(C(=O)CCc2nc3ccccc3s2)CCCCCCN1	i
11	CCC(=O)O[C@H]1C(C)(C)[C@H]([C@@H](O)C(=O)OC)[C@]2(C)C(=O)[C@@]1(O)[C@H]1O[C@]13C1CC(=O)O[C@@H](c4ccoc4)[C@]1(C)CCC32 (stereo not given in full)	i
12	Cc1ccc(CN2CCC3(CC2)CCN(Cc2ccco2)CC3CO)s1 (stereo not given)	i
13	CCc1ccc(-c2cc3n(n2)CC(C)(C(=O)NC2CCCCC2)N(Cc2ccco2)C3=O)cc1 (stereo not given)	i
14	CCn1nc(CC(C)C)cc1C(=O)N1CCN(S(=O)(=O)CC)CC1	i
15	Fc1cccc2c1NC(c1ccc(Cl)cc1)C1CC=CC21 (stereo not given)	i
16	COc1ccc(OC)c(CCNC(=O)CCc2nnc3n(Cc4ccccc4)c(=O)c4ccccc4n23)c1	i
17	O=C(COc1ccc(C(=O)c2ccccc2)cc1)NC1CCN(Cc2ccccc2)CC1	i
18	CC(C)C(C#N)O[C@@H]1O[C@H](CO[C@@H]2OC[C@](O)(CO)[C@H]2O)[C@@H](O)[C@H](O)[C@H]1O (stereo not given in full)	i
19	COc1cccc(CNC(=O)CCn2ccc3cc(S(=O)(=O)N4CCCCC4)ccc32)c1	i
20	c1ccc2c(c1)OCC(CCn1ccnc1-c1cc3n(n1)CCNC3)O2 (stereo not given)	i
21	C=Cc1ccc(Cn2nc3n(C)c(=O)c4ccc(C(=O)NC5CCCC5)cc4n3c2=O)cc1	i
22	CCCCc1ncc(-c2c(-c3ccccc3)ncn2CCCn2ccnc2)[nH]1	i
23	CCCC(=O)C1(c2ccccc2)CCN(C(=O)[C@@H](Cc2ccc(OC)cc2)NC(=O)[C@@H](N)Cc2cncn2C)CC1	i
24	CC(C)OCCCNC(=O)C1c2c(n(C)c3ccccc23)SCC(=O)N1c1ccc(F)cc1 (stereo not given)	i
25	CC(C)c1ccc(-c2cc3n(n2)CC(C)(C(=O)NC2CCCCC2)N(CCN(C)C)C3=O)cc1 (stereo not given)	i
26	O=c1c2ccccc2n2c(SCc3ccc(F)cc3)nnc2n1Cc1ccc(F)cc1	i
27	COc1ccc(CNC(=O)c2cc3n(n2)CC(C)(C(=O)NCc2ccc(C)cc2)N(C)C3=O)cc1 (stereo not given)	i
28	CC(=O)Nc1c2n(c3ccc(F)cc13)CC(C)(C(=O)NC1CCCC1)N(C1CCCCC1)C2=O (stereo not given)	i
29	COc1ccccc1CNC(=O)CN1CCCC(CO)(CC2CC2)C1 (stereo not given)	i
30	COc1ccc(N2CCN(C(=O)COc3cccc(-c4nnc5n4CCCC5)c3)CC2)cc1	i
31	CC(C)CCn1c(=O)c2ccc(C(=O)NC3CCCCC3)cc2n2c(=O)[nH]nc12	i
32	COC(=O)c1cc2n(n1)CC(C)(C(=O)NC1CCCCCC1)N(CCc1cccs1)C2=O (stereo not given)	i
33	CC(C)=CCc1cc(C(O)C2NC(=O)CNC(=O)C(Cc3c[nH]c4ccccc34)NC(=O)C3CCCN3C(=O)CNC(=O)C(C(C)C)NC(=O)CNC2=O)ccc1O (stereo not given)	i
34	O=C(C1CCCN([S+](=O)([O-])c2cccs2)C1)N1CCC(N2CCCC2=O)CC1 (stereo not given)	i
35	CN[C@@H](C)C(=O)N1CC[C@H](NC(=O)Cc2cccs2)C[C@H]1C(=O)N[C@@H](Cc1ccc(OC)cc1)C(N)=O	i
36	CCOC(=O)c1cc2n(n1)CC(C)(C(=O)NCCOC)N(c1cc(Cl)ccc1OC)C2=O (stereo not given)	i
37	CC(C)NC(=O)Cn1nc2n(C(C)C)c(=O)c3ccc(C(=O)NC4CCCC4)cc3n2c1=O	i
38	Cc1ccc(CN2C(=O)[C@@H]3C[C@@H](O)CN3C3(CN(Cc4ccccc4Cl)C3)C2=O)o1	i
39	O=C(C1CCCC1)N1CC2(CCN(Cc3cccnc3)CC2)Cc2ccccc21	i
40	COc1cccc(CN2C(=O)c3nc4ccccc4n3CC2(C)C(=O)NC2CCCCC2)c1 (stereo not given)	i
41	COC(=O)Cn1c(=O)oc2cc(S(=O)(=O)NCCc3cccs3)ccc21	i
42	Cc1ccc(NS(=O)(=O)c2cc3[nH]c(=O)[nH]c3cc2C)cc1Cl	i
43	COc1ccc2c(c1)C=C(CN1CCCC(O)(CN(C)C)C1)CO2 (stereo not given)	i
44	Cc1ccc(S(=O)(=O)c2nnn3c2nc(NC2CCCC2)c2ccccc23)cc1	i
45	O=C(COc1ccc(F)cc1)N1CCOc2ccc(N3CCOCC3)cc2C1	i
46	Cc1cn(CCN2CCN(c3ccccc3-c3cc(C#N)cc(C(=O)NCCCN4CCCC4)c3)CC2)c2ccccc12	+
47	COc1ccc(OC)c(CN2C(=O)c3ccc(-c4ccco4)n3CC2(C)C(=O)NCc2ccccc2)c1 (stereo not given)	i
48	COc1cc2c(NC3CCN(C)CC3)nc(N3CCCN(C)CC3)nc2cc1OCc1ccccc1	?
49	O=[S+]([O-])(Nc1ccccc1)c1ccc2c(c1)OCCN(Cc1cocn1)C2	i
50	COCC(=O)N1CCC[C@@H]1C(=O)N1CCC(N2CCOC2=O)CC1	i
51	CC1CCCCN1S(=O)(=O)c1ccc(NC(=O)CN2C(=O)c3ccccc3S2(=O)=O)cc1 (stereo not given)	i
52	COc1cc(OC)c(C(=O)N2CCC3(CC2)[C@H](O)C[C@@H]3OC)cc1OC	i
53	COc1ccc(N2CCN(S(=O)(=O)c3ccc4c(c3)n(C)c(=O)n4C)CC2)cc1	i
54	CC[C@H]1CN(C(=O)C(C)(C)C)CC[C@H]1CC(=O)NCc1cccnc1	i
55	CC1(C)CC[C@]2(C(=O)O[C@@H]3O[C@H](CO)[C@@H](O)[C@H](O)[C@H]3O)CC[C@]3(C)C(=CCC4[C@@]5(C)C[C@@H](O)[C@H](O)C(C)(C)C5CC[C@]43C)C2[C@@H]1O (stereo not given in full)	+
56	O=c1[nH]cnc2[nH]ncc12	i

# Next structures
no.	smiles	Methyltransferases
57	CCCN1C(=O)c2cc(C(=O)NCc3ccco3)nn2CC1(C)C(=O)NC1CCCC1 (stereo not given)	i
58	CC(C)N1CCC(N2C[C@@H](CO)[C@H](c3nc(C4CC4)no3)C2)CC1	i
59	CC(C)CCC[C@@H](C)[C@H]1CC[C@H]2[C@@H]3CC=C4C[C@@H](OC(=O)NCCN(C)C)CC[C@]4(C)[C@H]3CC[C@]12C	i
60	CCOC(=O)c1cccc(Nc2cc(C)nc3ccc(C)cc23)c1	+
61	C#CCN(Cc1nc(-c2ccccc2OCC)oc1C)C1CCCCC1	i
62	COc1ccccc1CNC(=O)C1(C)Cn2nc(-c3ccccc3)cc2C(=O)N1c1ccc(Cl)cc1 (stereo not given)	i
63	CC1(C(=O)NC2CCCCCCC2)Cn2c(cc3occc32)C(=O)N1CCCN1CCOCC1 (stereo not given)	i
64	CCCN1C(=O)c2c(C(=O)NCc3ccc(C)cc3)ncn2CC1(C)C(=O)NC1CCCC1 (stereo not given)	i
65	CCC(C)NC(=O)c1ccc2c(=O)n(C)c3nn(CC(=O)NCc4ccccc4)c(=O)n3c2c1 (stereo not given)	i
66	Cc1cnc(C(=O)N2CCC3(CC2)CCC(O)(CN(C)C)CC3)cn1	i
67	O=C(O)C[C@@H]1CCN(C(=O)C2CCCC2)C[C@@H]1CCN1CCCCC1	i
68	O=C1CC2(CCN(C(=O)c3ccccn3)C2)Nc2ccccc2N1 (stereo not given)	i
69	CC(CCc1ccccc1)NCC(O)c1ccc(O)c(C(N)=O)c1 (stereo not given)	i
70	CCCn1c(=O)c2ccc(Cl)cc2n2c(=O)n(Cc3ccccc3C)nc12	i
71	COc1ccc(N2C(=O)c3cc4ccc(OC)cc4n3CC2(C)C(=O)NC2CCCCC2)c(OC)c1 (stereo not given)	i
72	COCCn1ncc(N2CCC(C(=O)NCCCN3CCC(N4CCCCC4)CC3)C2)cc1=O (stereo not given)	i
73	COc1ccc(CN2CC3(CCN(S(=O)(=O)c4c(C)nn(C)c4C)CC3)C2=O)cc1	i
74	CCCn1c(=O)c2ccc(C(=O)NCC(C)C)cc2n2c(SCC(=O)c3ccc(F)cc3)nnc12	i
75	OC[C@H]1O[C@H](O[C@]2(CCl)O[C@H](CCl)[C@@H](O)[C@@H]2O)[C@H](O)[C@@H](O)[C@H]1Cl	i
76	CCCC1c2cccn2CCN1C(=O)Nc1ccc(OCC)cc1 (stereo not given)	i
77	O=c1[nH]c2ccc(S(=O)(=O)N3CCN(Cc4ccc5c(c4)OCO5)CC3)cc2[nH]1	i
78	CC(=O)OC(C)(C)/C=C/C(=O)C(C)(O)C1C(O)CC2(C)C3CC=C(C(C)(C)C(=O)O)C(CC(=O)O)C3(C)C(=O)CC12C (stereo not given)	i
79	CCCn1c(=O)c2ccc(Cl)cc2n2c(SCc3ccccc3)nnc12	i
80	COc1cc(SC)ccc1C(=O)N[C@H]1CCN2C(=O)[C@@H](CC(=O)O)NC(=O)[C@@H]2C1	i
81	C=C1C(OC2OC(CO)C(O)C(O)C2O)CC2C(C)(C)C(O)CCC2(C)C1CC/C(C)=C\COC(=O)CC(=O)O (stereo not given)	+
82	Cc1ccccc1N1C(=O)c2cc3ccccc3n2CC1(C)C(=O)NCCC(C)C (stereo not given)	i
83	CC(=O)N[C@H]1CCN(c2ccc(C3=NOC(CN[S+](=O)([O-])C(C)C)C3)cc2F)C1 (stereo not given in full)	i
84	CCCN1C(=O)c2cc(C(=O)NCc3ccc(F)cc3)nn2CC1(C)C(=O)NC1CCCC1 (stereo not given)	i
85	O=C(Cn1ccc2cc(S(=O)(=O)N3CCCC3)ccc21)NC1CCCCC1	i
86	CS(=O)(=O)c1ccc(-c2nnc(/C=C/c3nnc(-c4ccc(C#N)cc4)o3)n2-c2ccccc2Cl)nc1	i
87	CC(C)Cn1c(CN(C)CCC2CCCCO2)cnc1S(=O)(=O)Cc1ccccc1 (stereo not given)	i
88	CCCCCN(CCC12CC3CC(CC(C3)C1)C2)C(=O)NCCCc1ccncc1	?
89	CC1(C(=O)NC2CCCC2)Cn2c(ccc2-c2ccco2)C(=O)N1Cc1ccccc1Br (stereo not given)	i
90	Cc1ccc(C(=O)N2CCc3sc(C(=O)NCc4cc(F)cc(F)c4)cc3C2)cc1	i
91	CC(=O)Nc1c2n(c3ccc(F)cc13)CC(C)(C(=O)NC1CCCC1)N(Cc1ccccc1C)C2=O (stereo not given)	i
92	COC(=O)c1ncn2c1C(=O)N(Cc1cccc(Cl)c1)C(C)(C(=O)NC1CCCCCC1)C2 (stereo not given)	i
93	CC1(C(=O)NC2CCCC2)Cn2c(cc3ccccc32)C(=O)N1CCc1ccccc1 (stereo not given)	i
94	COc1ccc(CN2CCCC3(Cc4ccccc4CNC3=O)C2)c(OC)n1 (stereo not given)	i
95	CN(C)CCn1cc(-c2ccc(F)cc2)c(-n2cccc2)n1	i
96	COc1cccc(CNC(=O)Cn2nc3n(CCC(C)C)c(=O)c4ccccc4n3c2=O)c1	i
97	O=C1NC2(CCN(Cc3ccsc3)C2)Oc2ccccc21 (stereo not given)	i
98	CC1CCC(NC(=O)C2(C)Cn3c(cc4sccc43)C(=O)N2CCc2ccccc2)CC1 (stereo not given)	i
99	CC(C)c1ccc(CN2CC(CNC(=O)c3cnn(C)c3)C3(C2)CN(c2ccccc2)C3)cc1 (stereo not given)	i
100	CCCCOc1ccc(CNC(=O)c2cc3n(n2)CC(C)(C(=O)NCc2ccccc2)N(C)C3=O)cc1 (stereo not given)	i
101	O=C(CCn1ccc2cc(S(=O)(=O)N3CCCCC3)ccc21)N1CCN(c2ccccc2)CC1	i
102	CCOC(=O)c1cccc(NC(=O)c2cc3n(n2)CC(C)(C(=O)NC2CCCCC2)N(C)C3=O)c1 (stereo not given)	i
103	CN(C)c1ccc(CN2C(=O)c3ccc(-c4ccco4)n3CC2(C)C(=O)NCc2ccc(Cl)cc2)cc1 (stereo not given)	i
104	CC(C)CCn1c(=O)c2ccccc2n2c(SCC(=O)Nc3cccc(Cl)c3)nnc12	i
105	O=C(Nc1cc(F)ccc1F)N1Cc2c(sc3c2CCCC3)-n2cccc2C1c1ccccc1 (stereo not given)	i
106	COCCn1c(C)cnc1CC1CCCN(S(=O)(=O)c2cccc(F)c2)C1 (stereo not given)	i

# A portion of the library. The share of hits here may be higher or lower than overall.
